# Screening results as filed in PubChem.
# LT uptake inh: inhibitors of anthrax lethal toxin internalization. actives 0.67% (n = 70,000). Cells, anthrax lethal toxin internalization, FRET ratio (460/530). Potency, µM (titrated, usually from 40 µM), for the others: at the highest dose activity change, negative = inhibition, actives largely listed as inhibitors; active = well fitted falling ratio curve with the 530 nm signal flat; inconclusive = other ratio curves, or a change in one channel alone; inactive = flat curves in the ratio and both channels; the % refers to the ratio; further: on the % scale 0 is the no-effect control and ±100 the full control effect; nearly all actives have a fitted effect of over 50% in size; tested in ME-180 cells; beta-lactamase reporter
# Prx2 Sm inh: blocks S. mansoni peroxiredoxin 2 enzymatic activity. S. mansoni Prx2 activity coupled to TGR/GSH (TGR is thioredoxin glutathione reductase), NADPH fluorescence loss, qHTS; some inactives read as strong as hits. actives 0.07% (n = 65,000). Potency, µM; active means full or partial inhibition curve with a strong effect at the top dose; inconclusive means weaker partial or single-point curve; inactive means no accepted curve; further: series up to 57 µM; many of its hits are not listed in these tables
#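 Purified S. mansoni TGR and Prx2 in pH 7.4 phosphate buffer with EDTA and Tween-20 were preincubated with compounds for 15 min. Further NADPH/GSH was added, then a 2.5 mM H2O2 aliquot initiated turnover, followed kinetically by NADPH fluorescence.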
# Numbers without * were called inactive; ? = inconclusive; / = not tested or not shown; & = joins results of further samples; [ ] = another dose, or the depositor's remark. Potency means the concentration at half of the fitted maximal effect. Only part of the results is shown; rates above refer to the full screens.
SMILES,LT uptake inh,Prx2 Sm inh
CN1CCN(c2ncc3nc(-c4ccccc4)c(=O)n(Cc4cccs4)c3n2)CC1,?,>11
c1ccc(-c2nn3c(Cn4cnc5ccccc54)nnc3s2)cc1,3%,>57
CC(C)OC(=O)C1C2C=CC3(CN(C(C)c4ccc(Br)cc4)C(=O)C13)O2 (stereo not given),-5%,>57
CCOc1ccc(S(=O)(=O)Nc2cccc(Cl)c2)cc1,-8%,>57
CCCCCCn1c(CN2CCCCC2C)nc2c1c(=O)n(C)c(=O)n2C (stereo not given),8%,>57
C=CCOC(=O)c1sc(N2C(=O)c3oc4ccccc4c(=O)c3C2c2ccco2)nc1C (stereo not given),8%,>57
COc1cc(-c2nn3c(-c4ccccc4)nnc3s2)cc(OC)c1OC,-3%,>57
Cc1ccc(NS(=O)(=O)c2cc(C(=O)O)ccc2Cl)c(C)c1,?,>57
CC(C)OC(=O)CSc1nnc(-c2cccnc2)n1N,-1%,>57
CC(C)Cc1cc(C(=O)Nc2c(F)cc(F)cc2Br)no1,-23%,>57
O=C(c1cccc(F)c1)N1CCC2(CCCN(c3ccc(-c4ccccc4)cc3)C2)CC1,-22%,>57
CCOc1ccc(-n2c(Cc3cc(=O)[nH]c(=O)[nH]3)nnc2SCC(=O)OC)cc1,-10%,>57
CC(C)(C)Nc1ncnc2c1cnn2-c1ccccc1,?,>57
CC(=O)N1[C@H](Cc2ccccc2)C=C[C@]1(C)C(=O)O,3%,/
COc1ccc(C2CC(=O)C3=C(C2)Nc2ccccc2N(C(=O)C2CC2)C3c2cccnc2)cc1OC (stereo not given),-6%,>57
C=CCn1c(N)c(C(=O)OC(C)CC)c2nc3ccccc3nc21 (stereo not given),?,>57
CC(C)C(=O)N[C@H]1CCCN1C(=O)/C=C\c1ccccc1,6%[8 µM],/
CSc1cccc(NS(=O)(=O)c2ccc3c(c2)oc(=O)n3C)c1,-17%,>57
Cc1cc(C)cc(NCC(=O)Nc2c(C)cccc2C)c1,?,>57
COc1ccc(-n2nnnc2-c2cccc(OC)c2)cc1,?,>57
O=[n+]1c2c(n([O-])c3c1CCCC3)CCCC2,-9%,/
O=C(CSCc1ccccc1)N1CCN(C(=O)c2ccco2)CC1,?,>57
Cc1ccc(S(=O)(=O)NCc2csc(C)n2)c(C)c1,1%,>57
CC(Sc1n[nH]c(=O)[nH]c1=O)C(=O)OCc1ccccc1 (stereo not given),-5%,>57
CC1CCCN(c2oc(-c3cccc4ccccc34)nc2C#N)C1 (stereo not given),?,>57

# Going on with the list.
SMILES,LT uptake inh,Prx2 Sm inh
CCN1CCN(CCCNC(=O)c2cc3cc4ccc(OC)cc4nc3o2)CC1,?,>57
CN(C)c1ccc(-c2noc(-c3ccccc3O)n2)cc1,1%,>57
O=C(Oc1ccccc1C(=O)N1CCOCC1)c1cccc(Br)c1,-11%,>57
Cc1cc(N)n(-c2nc(-c3cccnc3)nc3ccccc23)n1,1%,>57
COc1ccc(-c2cc(=O)oc3cc(OCc4nn[nH]n4)ccc23)cc1,-2%,>57
N#Cc1cccc(-c2nc3cnc(N4CCOCC4)nc3n(C3CC3)c2=O)c1,?,>57
CCN(CC)S(=O)(=O)c1csc(C(=O)Nc2ccccn2)c1,-4%,>57
O=C(CSc1nc2ncccc2[nH]1)c1ccc(F)cc1,?,>57
O=C(CSc1nc2c(c(=O)n1-c1ccc(F)cc1)SCC2)NCc1ccco1,3%,>57
O=C(Nc1nc(-c2ccc3c(c2)OCCO3)cs1)c1ccc(S(=O)(=O)N2CCCCC2)cc1,?,>57
Cc1ccc(S(=O)(=O)Nc2cccc3ncccc23)s1,-19%,>57
Cc1nc2c(F)c(F)c(C(F)(F)F)c(F)c2[nH]1,2%,>57
N#CC1=C(c2ccccc2)N=P(N2CCOCC2)(N2CCOCC2)N=C1N1CCOCC1,-1%,>57
Cc1nc2ncnn2c(N2CCN(c3cccc(C(F)(F)F)c3)CC2)c1C,-7%,?
c1nc(NC2CCCCCC2)c2[nH]cnc2n1,?,>57
O=C1C2C3C=CC(C3)C2C(=O)N1c1ccc2c(c1)CCC2 (stereo not given),5%,>57
O=C(COC(=O)c1n[nH]c2ccccc12)NC(=O)NC12CC3CC(CC(C3)C1)C2,-26%,>57
Cn1c(CSc2nc3ccccc3s2)n[nH]c1=S,-7%,/
Cc1cccc(Nc2n[nH]c(=S)s2)c1C,-30%,>57
CCOC(=O)c1ccc(COC(=O)c2cc3ccccc3oc2=O)o1,-19%,>57
Cc1nn2c(-c3ccco3)nnc2c2ccccc12,4%,>57
Cc1cc(C(=O)OCc2nnc(-c3ccccc3)o2)c(C)n1-c1ccccc1,-20%,>57
O=C(Cc1nc(-c2ccc(Br)s2)cs1)NCCN1CCOCC1,-1%,>57
COc1ccc(N2CCN(CC(=O)N3CCC(C)CC3)CC2)cc1,?,>57
Cn1nnc(NC(=O)CSc2nnnn2-c2ccc(F)cc2)n1,-5%,>57

# (listing goes on)
SMILES,LT uptake inh,Prx2 Sm inh
CCCN1CCN(CCCNC(=O)C2CCCN(c3nnc(-n4cccc4)s3)C2)CC1 (stereo not given),-12%,>57
COc1ccc(-c2c(C)oc3c(CN4CCN(C)CC4)c(O)ccc3c2=O)cc1,-19%,>57
COc1ccc(-c2nc3cnc(Oc4cccc(Cl)c4)nc3n(CCC#N)c2=O)cc1,?,>57
CC(=O)NC(CC(C)C)C(=O)NC(=O)NCc1ccccc1 (stereo not given),-5%,>57
CC1CCN(C(=O)C2CC(c3ccc(F)cc3)=NO2)CC1 (stereo not given),14%,>57
Cc1nc2nc[nH]n2c(=O)c1NC(=O)c1cccc(OCC(C)C)c1,-4%,>57
CCn1c(SCC(=O)Nc2ccccc2C)nnc1-c1ccccc1O,?,>57
C[C@]12CCC3c4ccc(OCC(=O)O)cc4CCC3C1CCC2=O (stereo not given in full),5%[8 µM],>57
CSc1nc(C)cc(OCC#N)n1,7%,>57
Cc1onc(-c2ccccc2)c1C(=O)NC(CC(=O)O)c1ccc(OC(C)C)cc1 (stereo not given),5%,>57
O=c1nc(N2CCOCC2)ccn1-c1nc(-c2ccccc2)oc1-c1ccccc1,0%,>57
COC(=O)CSc1nnc(C)n1-c1cccc(C#N)c1,?,>57
COc1ccc(N2CC(C(=O)Nc3ncccc3C)CC2=O)cc1 (stereo not given),-2%,>57
CC1CCCCC1NS(=O)(=O)c1ccc(S(=O)(=O)N2CCCC2)cc1 (stereo not given),-14%,>57
Cc1cc(Cl)ccc1N1C(=O)CC(SCCC(=O)O)C1=O (stereo not given),?,>57
CCc1nccn1S(=O)(=O)c1ccc2ccccc2c1,-13%,/
CC(C)OC(=O)C(C#N)c1nc2ccccc2nc1N1CCN(Cc2ccccc2)CC1 (stereo not given),?,>57
CCOC(=O)N1CCN(c2ncnc3c2cnn3-c2ccc(Cl)cc2)CC1,0%,>57
COc1ccc(CCn2c(SCC(=O)Nc3cc(C)on3)nc3ccsc3c2=O)cc1OC,?,>57
COc1ccc2[nH]cc(CCNc3ccnc(-c4ccccc4C(F)(F)F)n3)c2c1,?,>57
CCOC(=O)c1c(C)oc2c1c(/C=N/c1ccccn1)c(O)c1ccccc12,-3%,>57
CCOC(=O)c1[nH]c(C)c(C(=O)NCCc2ccc(OC)cc2)c1C,7%,>57
CCOC(=O)c1ccccc1NC(=O)c1ccccc1N(C)S(C)(=O)=O,3%,>57
O=C(NCc1ccco1)C(c1ccncc1)N(CCC1=CCCCC1)C(=O)Cn1nnc2ccccc21 (stereo not given),14%,>57
CCOC(=O)C1=C(c2ccccc2)N=C2SCC(=O)N2C1c1ccc2c(c1)OCO2 (stereo not given),-18%,/

# (further entries)
SMILES,LT uptake inh,Prx2 Sm inh
CCOc1ccccc1C1SCC(=O)Nc2c1c(=O)[nH]n2C(CC)CC (stereo not given),?,>57
CCOC(=O)c1cc(-c2nnc(-c3ccc(Oc4ccccc4)cc3)o2)c(C)nc1C,?,>57
Cc1ccc(NC(=O)CN(C)C(=O)CCCN2C(=O)c3ccccc3C2=O)cc1,0%,>57
O=C(CN1CCOc2ccccc21)NCc1ccc(F)cc1,-12%,>57
O=C1COc2ccc(C(=O)COC(=O)c3ccc4ccccc4n3)cc2N1,-9%,>57
COc1ccccc1NS(=O)(=O)c1ccc(NC(=O)CCNC(=O)c2ccco2)cc1,-17%,>57
COC(=O)c1ccc2c(=O)n(Cc3ccc4c(c3)OCO4)c(SCC(=O)N3CCCC3)nc2c1,5%,>57
CSc1c(CC(=O)NCCO)n(C)c2ccccc12,0%,>57
Cc1n[nH]c(C)c1S(=O)(=O)N1CCCC(C(=O)N2CCN(c3ccc(Cl)cc3)CC2)C1 (stereo not given),-5%,>57
CC1CCCCC1NC(=O)CN1CCC(O)(c2ccc(F)cc2)CC1 (stereo not given),-15%,>57
CCOc1cc(C)c(Cl)cc1S(=O)(=O)N1CCCC1,3%,>57
Cc1ccc(S(=O)(=O)NCC2CCC(C(=O)NCc3ccco3)CC2)cc1 (stereo not given),1%,>57
O=S(=O)(NC1CCN(Cc2ccccc2)CC1)c1cccc2cccnc12,-7%,>57
Cc1nn(C)c(C)c1S(=O)(=O)N1CCC(C(=O)NC(C)c2ccccc2)CC1 (stereo not given),3%,>57
CCC(C)NC(=O)c1c(N)n(/N=C/c2ccccn2)c2nc3ccccc3nc12 (stereo not given),18%,>57
COc1cccc(C(=O)N2CCN(S(=O)(=O)Cc3ccccc3)CC2)c1,-2%,>57
O=C(Cn1cnc2c(cnn2-c2ccccc2)c1=O)NCc1ccccc1,0%,>57
C[C@H](NC(=O)OC(C)(C)C)C(=O)NCC1CCC(C(=O)O)CC1 (stereo not given in full),-5%,>57
CCOc1cccc(NC(=O)C2CCCN(S(=O)(=O)c3ccc(-n4cnnn4)cc3)C2)c1 (stereo not given),-7%,>57
OC1(CN2CCOCC2)C2CN3CCN(C2)CC1(c1ccccc1)C3 (stereo not given),-21%,/
O=C(Oc1ccc2c(c1)OCC2=O)c1ccccc1,-8%,>57
Cc1occc1-c1nnc(SCC(=O)NCc2cccs2)n1CC1CCCO1 (stereo not given),2%,>57
COC(=O)[C@@]1(Cc2ccc(F)cc2)[C@H]2c3cc(C(=O)N(C)C)n(Cc4ccsc4Br)c3C[C@H]2CN1C(=O)c1ccccc1,?,>57
CC(C)CNC(=O)CN(C1CCCCC1)S(C)(=O)=O,?,>57
CC(=O)[C@H]1CC[C@H]2[C@@H]3CCC4=CC(=O)CC[C@]4(C)[C@H]3CC[C@]12C,-17%&-15%,/

# Compound profiles, from the list above. Order of values: LT uptake inh, Prx2 Sm inh
# `O=C(CN1CCOc2ccccc21)NCc1ccc(F)cc1` in the list: -12%, >57
# `Cc1nn(C)c(C)c1S(=O)(=O)N1CCC(C(=O)NC(C)c2ccccc2)CC1` (stereo not given) in the list: 3%, >57
# `Cc1n[nH]c(C)c1S(=O)(=O)N1CCCC(C(=O)N2CCN(c3ccc(Cl)cc3)CC2)C1` (stereo not given) in the list: -5%, >57

# Additional records:
SMILES,LT uptake inh,Prx2 Sm inh
CCC(=O)Nc1ccc2nc(C3CC3)n(Cc3ccccc3)c(=O)c2c1,?,>57
Cc1cc(C(=O)Nc2cccc3ncccc23)no1,5%,>57
COc1cccc(-n2cc3c(=O)n(C)c(=O)n(C)c3c2)c1,?,>57
Cc1cc(-c2ccc(N=Nc3cc(S(=O)(=O)O)c4ccccc4c3N)c(C)c2)ccc1N=Nc1cc(S(=O)(=O)O)c2ccccc2c1N,?,/
Cc1ccc(S(=O)(=O)N(C)c2ccc(C(=O)O)cc2)cc1,8%,>57
CNC(=O)[C@@H]1O[C@@H](n2cnc3c(NCc4ccc(N)cc4)ncnc32)[C@@H](O)[C@H]1O,-7%,>57
COc1ccc(S(=O)(=O)NC(CC(=O)NCc2ccco2)c2ccco2)cc1 (stereo not given),-8%,>57
Brc1cnn(-c2nc(N3CCOCC3)nc(N3CCOCC3)n2)c1,16%,>57
C=CCOc1ccc(/C(O)=C2\C(=O)C(=O)N(CCOC)C2c2cccnc2)cc1 (stereo not given),-15%,>57
CC1(C)NC(=O)N(CC(O)CNC23CC4CC(CC(C4)C2)C3)C1=O (stereo not given),7%,>57
O=C(O)/C=C/c1ccc(/C=C/C(=O)O)cc1,5%,/

# Structures listed so far with two or more sulfur atoms:
SMILES,LT uptake inh,Prx2 Sm inh
CSc1cccc(NS(=O)(=O)c2ccc3c(c2)oc(=O)n3C)c1,-17%,>57
Cc1ccc(S(=O)(=O)NCc2csc(C)n2)c(C)c1,1%,>57
CCN(CC)S(=O)(=O)c1csc(C(=O)Nc2ccccn2)c1,-4%,>57
O=C(CSc1nc2c(c(=O)n1-c1ccc(F)cc1)SCC2)NCc1ccco1,3%,>57
O=C(Nc1nc(-c2ccc3c(c2)OCCO3)cs1)c1ccc(S(=O)(=O)N2CCCCC2)cc1,?,>57
Cc1ccc(S(=O)(=O)Nc2cccc3ncccc23)s1,-19%,>57
Cn1c(CSc2nc3ccccc3s2)n[nH]c1=S,-7%,/
Cc1cccc(Nc2n[nH]c(=S)s2)c1C,-30%,>57
O=C(Cc1nc(-c2ccc(Br)s2)cs1)NCCN1CCOCC1,-1%,>57
CC1CCCCC1NS(=O)(=O)c1ccc(S(=O)(=O)N2CCCC2)cc1 (stereo not given),-14%,>57
COc1ccc(CCn2c(SCC(=O)Nc3cc(C)on3)nc3ccsc3c2=O)cc1OC,?,>57
Cc1occc1-c1nnc(SCC(=O)NCc2cccs2)n1CC1CCCO1 (stereo not given),2%,>57
Cc1cc(-c2ccc(N=Nc3cc(S(=O)(=O)O)c4ccccc4c3N)c(C)c2)ccc1N=Nc1cc(S(=O)(=O)O)c2ccccc2c1N,?,/
